# High-throughput results deposited in PubChem by National Center for Advancing Translational Sciences (NCATS).
# Menin-MLL FL inh – inhibitors of human menin-MLL interaction, wild-type MLL peptide; 290,000 tested, under 10 active; FP activity change, % at 61.4 µM; Fluorescence polarization, fluorescein-MLL peptide displacement from menin; AID 1766; inconclusive = falling polarisation curve, or a change in total fluorescence; inactive = total fluorescence flat and polarisation flat or rising; no compound was filed as active; the % refers to the polarisation; negative = inhibition;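 also: % of control where 0% means no effect; inhibitors lower the polarisation; unlabelled MLL peptide was the positive control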
# gsp ag – activates gsp, the McCune-Albright syndrome mutation. 0.13% of 340,000 active. gsp mutant cells, cAMP HTRF, 30 min; control for the full effect not named in the record. Potency, µM (series often up to 76.9 µM), without a hit: at the highest dose activation (cAMP increase), actives largely listed as activators. AID 624287; active = well fitted activation curve with a large enough effect; inconclusive = small, poorly fitted or top-dose-only effect, or another doubt; inactive = no such curve, though single readings can be large or run the other way; cell line not stated here;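 also: phosphodiesterase inhibitor Ro 20-1724 added with compounds to block cAMP breakdown; potency is read from the fitted curve at half-maximal effect; nearly all actives have a fitted effect of over 60% in size; about a fifth of the inactives were tested at one dose only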
#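 Cells stably selected in G418 were plated at 2000/well, grown 16-24 hr, then given compounds in DMSO with the PDE inhibitor […] (300 uM solution added) for 30 min at 37C; cAMP was read by HTRF.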
# CtBP-E1A blk – CtBP/E1A binding inhibition; activity change, % (no concentration beside the values); AlphaScreen GST-E1A/His-CtBP binding, 1536-well; active compounds read low; control for the full effect not named in the record; 0.49% of 340,000 active; in the data active means activity change below about -65%; inconclusive means about -30% to -65%; inactive means above about -30%; also: % is scaled to controls: 0 for no effect and ±100 for the full control effect
#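 Protein mix (5X: 125 nM each GST-E1A, His-CtBP) was incubated with pinned compound 2 h at 37 deg C in dark, in 50 mM Tris pH 8.0 buffer with 300 mM NaCl. Glutathione donor and nickel acceptor beads followed; AlphaScreen signal read after 1 h.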
# Sfp inh – blocks B. subtilis Sfp PPTase activity; AID 1490; Potency, µM, without a hit: max response, negative = inhibition, hits mostly inhibitors; Biochemical Sfp PPTase activity, qHTS; 3.5% of 310,000 active; Q9F4F7; active = well fitted inhibition curve with a large enough effect; inconclusive = small, poorly fitted or top-dose-only effect, or another doubt; inactive = no such curve, though single readings can be large or run the other way;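 also: the enzyme is Sfp with the accession as filed and its product quenches rhodamine fluorescence; potency is read from the fitted curve at half-maximal effect; 0% = enzyme reaction without inhibitor and -100% = no enzyme wells; top concentration of the series not given in the record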
#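 Fluorescence-quenching assay with 15 nM Sfp, 5 uM rhodamine-CoA and 12.5 uM BHQ-2-labelled ybbR peptide in pH 7.6 Hepes/MgCl2 buffer. Enzyme was pre-incubated with compound for 15 min at room temperature. Rate was taken from the 30-min fluorescence change (525/598 nm).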
# ClpP mod – qHTS Assay for Activators of ClpP; Potency, µM (series often up to 57.5 µM), without a hit: at the top dose activity change, negative = active; 1.9% of 340,000 active; purified B. subtilis ClpP, FRET peptide cleavage, 20 min; ATP-dependent Clp protease proteolytic subunit (Bacillus subtilis (strain 168)), P80244; active = well fitted falling curve with a large enough effect; inconclusive = small, poorly fitted or top-dose-only effect; inactive = no such curve, though single readings can be large or run the other way; also: potency is read from the fitted curve at half-maximal effect; the source files actives as falling curves though it sought activators and does not explain the sign; nearly all actives have a fitted effect of over 65% in size; many hits overshoot -100%
# Target sequence (P80244 whole entry, looked up): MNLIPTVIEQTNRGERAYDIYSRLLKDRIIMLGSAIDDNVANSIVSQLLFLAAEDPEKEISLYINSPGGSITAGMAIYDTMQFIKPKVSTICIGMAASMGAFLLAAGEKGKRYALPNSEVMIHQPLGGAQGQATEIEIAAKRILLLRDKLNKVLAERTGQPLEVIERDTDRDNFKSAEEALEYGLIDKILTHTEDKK
#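 Purified B. subtilis ClpP, 10 microg/mL final in Tris/HCl pH8 with KCl, BSA, glycerol and Tween-20, cleaved an Abz/nitrotyrosine-quenched decapeptide. Fluorescence (ex 320, em 430) was read at 0 and 20 min at room temperature. Delta was normalized to 5.8 microM ADEP and DMSO/no-enzyme controls.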
# gsp antag – antagonizes gsp, the McCune-Albright syndrome mutation; gsp-mutant cells, cAMP HTRF, 30 min; control for the full effect not named in the record; Potency, µM (series often up to 76.9 µM), for the others: at the top dose activity change, negative = inhibition, most hits filed as inhibitors; 0.4% of 340,000 active; AID 624288; active = falling curve of any shape with a large fitted effect; inconclusive = falling curve, mostly with a smaller effect; inactive = flat or rising curve; cell line not stated here;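 also: intracellular cAMP measured with PDE inhibitor Ro 20-1724 present during compound exposure; potency is read from the fitted curve at half-maximal effect; % is scaled to controls: 0 for no effect and ±100 for the full control effect; nearly all actives have a fitted effect of over 65% in size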
#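 Measurement of cellular cAMP by homogeneous time-resolved fluorescence following a 30 min compound exposure at 37C. The PDE inhibitor […] was present throughout; the assay buffer was DPBS with 0.05% BSA and 0.005% Tween 20.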
# TRPV1 PAM – human TRPV1 potentiation; 0.02% of 320,000 active; TRPV1-expressing cells, Fluo-8 calcium influx, capsaicin EC20 potentiation; host cell line not named in the record; control for the full effect not named in the record; Q8NER1; potentiation, % at 8.33 µM; active means potentiation above 80%; inconclusive means 30% to 80%; inactive means below 30%; also: 0% is about no effect
#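 TRPV1-expressing cells were cultured overnight at 35.5C and loaded with Fluo-8 calcium dye for 40 to 90 min at room temperature. After a 10 s baseline, compound was added and calcium influx was read kinetically for 3 min (ex 480/em 520 nm).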
# * marks the source's active call; other numbers are inactive results; ? = inconclusive; / = not tested or not shown; [ ] = another dose, or the depositor's remark.
molecule	Menin-MLL FL inh	gsp ag	CtBP-E1A blk	Sfp inh	ClpP mod	gsp antag	TRPV1 PAM
CC(C)(C)OC(=O)C[C@@H]1C/C=C\C[C@H](CC(=O)NCCO)C(=O)NC[C@@H](c2ccccc2)OC1=O	/	-6%	/	/	2.9%	7%	/
CCOc1cc(S(=O)(=O)N2CCCC2)ccc1Cl	0.5	4%	15	3%	0.3%	-2%	-5
O=C(NC1CCCCC1)C(=O)c1c[nH]c2ccccc12	/	2%[15.4 µM]	5	7%	-0.4%	-8%	1
Cc1ccc(S(=O)(=O)Nc2cccc(Cl)c2)cc1NC(=O)c1cccnc1	1.2	?	1	13%	/	-9%	3
CCN(Cc1ccccc1)S(=O)(=O)c1cc2c3c(c1)CCN3C(=O)CC2	/	5%[15.4 µM]	0	/	-21%	-11%	10
CCOc1ccc(NC(=O)CN2CCN(CC(=O)Nc3ccc(C(N)=O)cc3)CC2)cc1	-5.3	?	8	5%	0.0%	-5%	16
Cc1c(N=Cc2c(O)n(C)c(=O)c3ccccc23)c(=O)n(-c2ccccc2)n1C	1.2	-50%[inhibitor]	0	12%	-0.8%	0%	-2
CC1(c2ccccc2)NC(=O)N(CC(=O)Nc2cccc(C#N)c2)C1=O (stereo not drawn)	0.3	?	4	-4%	-2.0%	0%	-6
CCCCN1C(=O)C(=O)N(CC(=O)N2CCN(c3ccccc3)CC2)C1=O	/	-14%[15.4 µM]	-2	/	/	1%	4
O=C(NNC(=O)C1CCC1)c1ccc(F)cc1	/	-23%	1	/	2.0%	/	/
OCc1nc(CO)n(Cc2ccccc2)n1	1.0	31%	4	9%	-2.6%	10%	-5
Cc1ccc(CNC(=O)C2CC(c3cccc(F)c3)=NO2)cc1 (stereo not drawn)	3.7	16%	/	4%	-1.4%	24%	-24
Cc1ccccc1NC(=O)Cn1cnc2c(oc3nc4c(cc32)CCCC4)c1=O	0.0	?	-12	4%	-21%	-11%	-16
Cc1cc(=O)oc(C)c1C(=O)NCC(C)NC(=O)c1c(C)cc(=O)oc1C (stereo not drawn)	0.6	24%	0	2%	0.5%	-1%	3
Cc1cc(C)c(-c2csc(NC(=O)c3cc([N+](=O)[O-])ccc3N3CCOCC3)n2)c(C)c1	8.8	15%[15.4 µM]	-10	1%	/	-9%	18
C/C(Sc1nnc(Cc2ccccc2)o1)=C(/O)c1ccccc1	-3.8	7%	10	20%	-0.6%	14%	-6
CCOc1ccc(NC(=O)CN(C)C(=O)c2ccc3[nH]c4c(c3c2)CC(C)CC4)cc1OCC (stereo not drawn)	/	3%	1	/	0.8%	-3%	3
CCC(C)c1ccccc1NC(=O)COC(=O)C1=NN(c2ccccc2)C(=O)CC1 (stereo not drawn)	/	10%	6	/	1.6%	-6%	/
Nc1ccc(Nc2nc(-c3ccncc3)cs2)cc1	1.5	-60%[inhibitor]	-14	-4%	0.7%	?	-9
COc1ccc(-n2c(N)c(C#N)c3ccc([N+](=O)[O-])cc3c2=O)cc1	-1.3	-33%[inhibitor]	-6	9%	-0.5%	-3%	-3
Cn1c(SCc2nc3ccccc3[nH]2)nnc1-c1cccnc1	10.0	3%	4	8%	-0.9%	1%	-4
Cc1ccc(C(C(=O)NCc2ccco2)N(C(=O)CNC(=O)c2cccs2)c2c(C)cccc2C)cc1 (stereo not drawn)	6.5	5%	-8	-13%	/	0%	-7
CCCCn1c(SCc2nc3ccccc3s2)nc2cc(S(N)(=O)=O)ccc21	0.9	-15%	-9	-5%	-0.4%	?	-5
O=C1CSC(c2cccnc2)N1CCc1ccccn1 (stereo not drawn)	-2.5	-1%	/	?	-1.3%	2%	-27
COc1ccc2c(c1OC)CN(C)CCc1cc3c(cc1C(=O)C2)OCO3	-5.1	4%[15.4 µM]	2	4%	/	2%	-4
Cc1ccc(Cl)cc1NC(=O)C1CC(=O)N(C(C)C)C1 (stereo not drawn)	0.6	6%[15.4 µM]	5	23%	2.0%	2%	-22
O=C(N/N=C/c1cccs1)c1cc(-c2ccc(Cl)s2)[nH]n1	-13	12%[15.4 µM]	0	20%	/	-10%	?
CCCC(=O)N(c1ccc(OCC)cc1)S(=O)(=O)c1ccc2c3c(cccc13)C(=O)N2C	/	-11%	-5	10%	-8.0%	2%	-23
COC(=O)C1=C(C(=O)OC)[C@@H]2N(Cc3ccccc3)c3ccccc3[C@@]23C[C@@H](C(=O)OC)N(S(=O)(=O)c2ccc(C(F)(F)F)cc2)C3=N1	-3.3[11.7 µM]	/	/	-8%	0.4%	/	/
CCC/C=C/c1ccc(CN2C(C)C(=O)N(Cc3cn(CCC4OCCCO4)nn3)CCS2(=O)=O)cc1 (stereo not drawn)	/	6%	?	/	2.5%	/	/
O=C(CSc1nnc(Nc2ccccc2F)s1)NC(=O)CN1CCCC1=O	/	11%	/	/	-0.8%	6%	-16
CC(=O)Nc1nc(C)c(S(N)(=O)=O)s1	2.2	0%	17	31%[activator]	0.1%	13%	-1

# Molecules shown so far that contain a halogen:
molecule	Menin-MLL FL inh	gsp ag	CtBP-E1A blk	Sfp inh	ClpP mod	gsp antag	TRPV1 PAM
CCOc1cc(S(=O)(=O)N2CCCC2)ccc1Cl	0.5	4%	15	3%	0.3%	-2%	-5
Cc1ccc(S(=O)(=O)Nc2cccc(Cl)c2)cc1NC(=O)c1cccnc1	1.2	?	1	13%	/	-9%	3
O=C(NNC(=O)C1CCC1)c1ccc(F)cc1	/	-23%	1	/	2.0%	/	/
Cc1ccc(CNC(=O)C2CC(c3cccc(F)c3)=NO2)cc1 (stereo not drawn)	3.7	16%	/	4%	-1.4%	24%	-24
Cc1ccc(Cl)cc1NC(=O)C1CC(=O)N(C(C)C)C1 (stereo not drawn)	0.6	6%[15.4 µM]	5	23%	2.0%	2%	-22
O=C(N/N=C/c1cccs1)c1cc(-c2ccc(Cl)s2)[nH]n1	-13	12%[15.4 µM]	0	20%	/	-10%	?
COC(=O)C1=C(C(=O)OC)[C@@H]2N(Cc3ccccc3)c3ccccc3[C@@]23C[C@@H](C(=O)OC)N(S(=O)(=O)c2ccc(C(F)(F)F)cc2)C3=N1	-3.3[11.7 µM]	/	/	-8%	0.4%	/	/
O=C(CSc1nnc(Nc2ccccc2F)s1)NC(=O)CN1CCCC1=O	/	11%	/	/	-0.8%	6%	-16

# Shown as labelled records: part of the list above.
> O=C(CSc1nnc(Nc2ccccc2F)s1)NC(=O)CN1CCCC1=O
- Menin-MLL FL inh = /
- gsp ag = 11%
- CtBP-E1A blk = /
- Sfp inh = /
- ClpP mod = -0.8%
- gsp antag = 6%
- TRPV1 PAM = -16
> CC(=O)Nc1nc(C)c(S(N)(=O)=O)s1
- Menin-MLL FL inh = 2.2
- gsp ag = 0%
- CtBP-E1A blk = 17
- Sfp inh = 31%[activator]
- ClpP mod = 0.1%
- gsp antag = 13%
- TRPV1 PAM = -1
